PKD1 kinase inh: inhibitors of human PKD1 kinase, biochemical, fluorescence polarization; PKD1 kinase fluorescence polarization assay; inhibition, %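 (about 10 µM by stock and volumes)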; 200,000 compounds, 0.056% hits; AID 797, 2007;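 active means inhibition of 50% or more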;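 further: controls were vehicle for no effect and a reference inhibitor for full effect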
INS promoter inh: inhibitors of insulin promoter-driven GFP, primary screen, imaging, TRM-6 cells (human fetal islet line), eGFP reporter, cell count; reporter expression induced with tamoxifen; inhibition, % at 2 µM; 130,000 compounds, 0.9% hits; AID 1273, 2008;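 active means inhibition above the mean plus 3 SD, with well images judged a real hit on visual review, cut at about 60% in these data, passing the limit was not always enough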
RGS16-Gao HTS: modulators of RGS16 binding to Galphao, primary screen, biochemical, human proteins, multiplexed bead flow cytometry. Regulator of G-protein signaling 16 (Homo sapiens) + Guanine nucleotide-binding protein …. AID 1441, 2008. bead-based flow cytometry RGS16-Galphao binding, fluorescence; actives lie on both sides. 220,000 compounds, 0.38% hits. binding response (% of control), % at 10 µM;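 active means below 25% or above 175%, edge rows of some plates excepted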;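 further: Galphao activated by GDP with aluminum fluoride before binding; 100% = wells without compound and 0% = beads without RGS; some results beyond the cut were filed as inactive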
Target sequence (O15492 whole entry, looked up): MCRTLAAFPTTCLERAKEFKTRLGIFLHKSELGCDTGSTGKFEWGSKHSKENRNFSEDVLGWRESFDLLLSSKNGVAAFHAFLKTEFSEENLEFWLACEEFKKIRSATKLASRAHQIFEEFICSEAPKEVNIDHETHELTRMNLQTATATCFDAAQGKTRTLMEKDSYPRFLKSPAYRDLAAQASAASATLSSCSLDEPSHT
Target sequence (P09471 whole entry, looked up): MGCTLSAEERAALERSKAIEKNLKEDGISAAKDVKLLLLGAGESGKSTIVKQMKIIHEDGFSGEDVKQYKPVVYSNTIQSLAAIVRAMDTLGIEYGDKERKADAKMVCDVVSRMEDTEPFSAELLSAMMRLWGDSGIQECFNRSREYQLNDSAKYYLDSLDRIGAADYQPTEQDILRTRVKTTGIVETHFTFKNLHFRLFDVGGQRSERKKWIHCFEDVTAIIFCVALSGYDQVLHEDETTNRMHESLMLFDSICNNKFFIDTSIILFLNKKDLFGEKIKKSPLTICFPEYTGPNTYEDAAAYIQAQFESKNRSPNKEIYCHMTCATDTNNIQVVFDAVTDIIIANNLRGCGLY
HSV replic up: enhancers of HSV replication in host cells, fold increase, host cell viability; maximum fold increase; HSV replication augmentation in cells; AID 1956, 2009; 220,000 compounds, 0.005% hits;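 active means peak rise of 1.5-fold or more in the series; tested in PC3 cells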;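 further: first round at 10 µM; read as green reporter fluorescence; hits show the peak of a series up to 25 µM; 1 = signal of infected wells without compound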
GALR2 ag: GALR2 receptor agonists, primary screen, cell-based; Galanin receptor type 2 (Homo sapiens), O43603; GALR2-expressing cells, agonist activation read-out; activation, %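 (tested at 5 µM)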; 140,000 compounds, 0.48% hits;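 active means above mean plus 3 SD of all compounds, about 5% in these data, not always enough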;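 further: 0% = vehicle buffer wells and 100% = reference agonist at full effect; tested in CHO reporter cells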
Target sequence (O43603 whole entry, looked up): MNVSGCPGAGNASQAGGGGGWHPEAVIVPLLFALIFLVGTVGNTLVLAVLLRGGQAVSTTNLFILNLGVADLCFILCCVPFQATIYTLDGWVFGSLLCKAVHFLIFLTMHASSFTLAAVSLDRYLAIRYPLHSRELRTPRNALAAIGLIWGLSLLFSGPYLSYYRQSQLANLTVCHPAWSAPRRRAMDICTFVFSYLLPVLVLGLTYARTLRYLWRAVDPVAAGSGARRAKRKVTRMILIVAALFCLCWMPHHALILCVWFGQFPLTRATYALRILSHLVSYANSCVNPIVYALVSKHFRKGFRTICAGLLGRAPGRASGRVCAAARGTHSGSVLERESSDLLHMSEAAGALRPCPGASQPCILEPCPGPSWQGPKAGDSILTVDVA
INS promoter inh cell count: also measured in INS promoter inh; calls as there; normalized cell count, %; measured here: cell count, toxicity; reference of the scale not given here;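 cells exposed to compound for 48 h; stained nuclei by imaging scaled within each plate; lower means fewer cells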
HSV replic up primary fold: further read-out of HSV replic up, marked with its call; fold increase; compound at 10 µM; measured here: primary screen fold increase 10 uM; tested in PC3 cells;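 GFP signal in the first replicate; 1 = infected wells without compound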
Starred values were filed as active, the others as inactive; i = inactive; x = no result given.

SMILES	PKD1 kinase inh	INS promoter inh	INS promoter inh cell count	RGS16-Gao HTS	HSV replic up	HSV replic up primary fold	GALR2 ag
Cc1cc(OC2CCCCC2)nc(NCc2ccccc2)n1	x	x	x	99	i	0.86	x
CCCn1nc2cc(C(=O)NCCc3ccc(C)cc3)ccc2c1OCC	11	x	x	114	i	0.85	-3.3
COc1ccc(-c2nc3cc(NC(=S)NC(=O)Cc4ccccc4)ccc3o2)cc1	3	19	158	101	i	0.86	0.6
CC1SC(=NC(=O)c2ccco2)NC1=O (stereo unspecified)	6	x	x	100	i	0.93	-0.6
CC1CN(C(=S)NC(=O)c2ccc([N+](=O)[O-])cc2)CC(C)O1 (stereo unspecified)	9	42	76	120	i	0.83	-1.3
COC(=O)c1c(NC(=S)NN2CCOCC2)sc2c1CCCC2	-3	x	x	102	i	0.96	x
O=Nc1c2ccc[nH]c-2c2ccc([N+](=O)[O-])cc12	0	x	x	92	i	0.82	x
COc1cc(/C=N/N2CCN(C3c4ccccc4-c4ccccc43)CC2)cc(OC)c1OC	8	-26	100	101	i	1.3	-0.5
CCc1c(C)[nH]c2ccc(C)cc2c1=O	-4	77*	72*	110	i	0.95	-1.6
CCOc1ccc(C(=O)CCNC(Cc2cnc[nH]2)C(=O)O)cc1 (stereo unspecified)	0	-63	61	102	i	0.68	-0.9
CCO[C@H]1OC(C(=O)N2CCCCCCC2)=C[C@@H](c2ccc(C(F)(F)F)cc2)[C@@H]1CCCO	5	x	x	105	x	x	x
COc1cc(OC)cc(C(=O)NCCNC(=O)c2ccco2)c1	-4	-371	39	103	i	1.1	-0.8
COc1cc(OC)cc(C(=O)N[C@H](C(=O)Nc2ccc(S(=O)(=O)N(C)C)cc2)C(C)C)c1	4	x	x	99	i	0.93	x
O=C(CNC(=O)c1ccc(Oc2ccccc2)cc1)OCc1ccc(Br)cc1	-8	7	151	101	i	0.97	-1.7
CCn1c2ccccc2c2nnc(SCC(=O)Nc3cc(C)on3)nc21	19	-43	43	95	i	0.96	0.0
CN(C(=O)COC(=O)/C=C/c1cn(-c2ccccc2)nc1-c1ccc2c(c1)OCCO2)C1CCS(=O)(=O)C1 (stereo unspecified)	-8	-33	107	107	i	0.94	x
COc1ccc(-n2nnnc2SCC(=O)c2ccc3c(c2)OCCO3)cc1	4	79*	63*	100	i	1.1	-2.8
Cc1cc(C(=O)N2CCN(c3ncccc3C#N)CC2)no1	x	x	x	101	i	1	x
COc1ccc(/C=C/C2=CC(C)(C)NC(=S)N2)cc1	4	x	x	97	i	0.99	x
CC(C(=O)O)c1ccc(N2Cc3ccccc3C2=O)cc1 (stereo unspecified)	-19	-32	144	98	i	0.9	-1.5
C=C1C(C(=O)Nc2cccc(OC)c2)C1C(=O)Nc1cccc(OC)c1 (stereo unspecified)	-5	x	x	99	i	0.96	x
Cc1cc(C(F)(F)F)nn1Cc1n[nH]c(=S)n1-c1ccc(Cl)cc1	-8	13	64	105	x	x	-1.0
CCC(C(=O)Nc1nc(C)c(C(=O)OC)s1)c1ccccc1 (stereo unspecified)	-5	x	x	101	i	0.77	x
CCc1ccc(-c2csc(NC(=O)Oc3ccccc3)n2)cc1	0	x	x	103	i	1	-0.7
COc1cc(CCC(=O)OCC(=O)Nc2ncc(Cl)cc2Cl)cc(OC)c1OC	-13	-55	103	96	i	0.94	-3.4
Cc1cc(C)nc(NS(=O)(=O)c2ccc(NC(=O)c3ccco3)cc2)n1	-8	x	x	101	i	0.81	-0.3
Cc1cc(=O)n(C2CCS(=O)(=O)C2)[nH]1 (stereo unspecified)	-6	29	128	101	i	0.97	x
COc1nc(N/N=C/c2ccc(-c3cccc([N+](=O)[O-])c3)o2)nc(N2CCOCC2)n1	-10	x	x	101	i	1.1	-0.8
CC(=O)N1CC=CC1(CC(C)C)C(=O)NCc1cc(F)cc(C(F)(F)F)c1 (stereo unspecified)	-3	-33	114	102	i	1.1	-2.2
COc1ccc(NC(=O)CN2CCN(C(=S)NC3CCCC3)CC2)cc1	x	x	x	109	i	1	x

Brought forward from above: 6 compounds, followed by the next part.
SMILES	PKD1 kinase inh	INS promoter inh	INS promoter inh cell count	RGS16-Gao HTS	HSV replic up	HSV replic up primary fold	GALR2 ag
COc1cc(CCC(=O)OCC(=O)Nc2ncc(Cl)cc2Cl)cc(OC)c1OC	-13	-55	103	96	i	0.94	-3.4
Cc1cc(C)nc(NS(=O)(=O)c2ccc(NC(=O)c3ccco3)cc2)n1	-8	x	x	101	i	0.81	-0.3
Cc1cc(=O)n(C2CCS(=O)(=O)C2)[nH]1 (stereo unspecified)	-6	29	128	101	i	0.97	x
COc1nc(N/N=C/c2ccc(-c3cccc([N+](=O)[O-])c3)o2)nc(N2CCOCC2)n1	-10	x	x	101	i	1.1	-0.8
CC(=O)N1CC=CC1(CC(C)C)C(=O)NCc1cc(F)cc(C(F)(F)F)c1 (stereo unspecified)	-3	-33	114	102	i	1.1	-2.2
COc1ccc(NC(=O)CN2CCN(C(=S)NC3CCCC3)CC2)cc1	x	x	x	109	i	1	x
CC1CCCCN1CC(O)COCCC12CC3CC(CC(C3)C1)C2 (stereo unspecified)	-2	x	x	97	i	0.81	x
CCOC(=O)c1c(NC(=O)c2cccnc2)sc(C)c1C	-9	14	131	98	i	0.84	-0.6
CCCCN(CCCC)CCNC(=O)Cc1nc2c(c(=O)[nH]c(=O)n2C)n1C	-10	-81	100	106	i	0.92	-2.9
Cc1ccc(NC(=S)N2CCCC(c3nc4ccc(C)cc4[nH]3)C2)c(C)c1 (stereo unspecified)	-15	-3	102	125	i	0.75	-2.1
CC(=O)Nc1ccc(NC(=O)CN(C)CC(=O)Nc2ccccc2Br)cc1	-2	x	x	98	i	0.89	x
O=S(=O)(/N=C(/Nc1ccccn1)c1ccc(Cl)cc1)c1ccc(Cl)cc1	0	13	114	98	i	0.97	-1.5
Cc1cc(=O)n(-c2ccc(C(=O)O)cc2)[nH]1	-4	-13	121	86	i	1	x
COc1ccccc1NC(CC(=O)c1ccccc1)C(=O)OCC(=O)c1ccc(C)c(C)c1 (stereo unspecified)	0	x	x	97	i	0.89	-3.0
CCOC(=O)C1CCN(S(=O)(=O)c2ccc(NC(C)=O)c(Cl)c2)CC1	x	x	x	101	i	1	x
CC1CN(C(=O)c2cccc(C(=O)N3CC(C)OC(C)C3)c2)CC(C)O1 (stereo unspecified)	0	9	74	100	x	x	-1.7
CCC(NC(=O)c1ccccc1NC(=O)c1ccccc1)C(=O)NNC(=O)c1cccnc1 (stereo unspecified)	x	x	x	99	i	0.62	x
Cc1ccc(-c2cc(-c3ccc4c(c3)OCO4)c(C#N)c(N)n2)o1	1	16	118	96	i	1	5.8
CCOc1cccc(C(=O)Nc2cccc(C(=O)NC(C)(C)C)c2)c1	23	20	111	103	i	0.8	-2.7
Cn1c(SCC(=O)NCc2ccc3c(c2)OCO3)nnc1C1COc2ccccc2O1 (stereo unspecified)	0	-64	90	98	i	1	-0.5
O=C(Nc1cccc(NC(=O)c2ccc(-c3cccc(Br)c3)o2)c1)c1ccco1	-6	x	x	102	i	1	-2.5
Cc1cccc(NC(=O)c2ccccc2OCC(=O)c2ccccc2)c1	-4	17	127	104	i	0.97	-2.0
CCOCCc1nnc(NC(=O)c2cccc(F)c2)s1	-13	-50	105	93	i	0.91	0.7
C/C(CC(=O)N1CCCC1)=N\NC(=O)c1cc2ccccc2cc1O	x	x	x	92	i	1.3	x
Cc1cc2nnc(SCC(=O)NCC3CCCO3)n2c2ccccc12 (stereo unspecified)	0	x	x	100	i	0.99	x
CC(C)OP(=O)(OC(C)C)C(O)c1cccc([N+](=O)[O-])c1 (stereo unspecified)	x	x	x	100	i	1	x
CCOC(=O)N1CCN(c2cc(=O)n(-c3cccc(Br)c3)c(=O)[nH]2)CC1	-1	x	x	99	i	0.96	-1.0
CC(=O)OC1CC(c2cc(C(C)(C)C)c(O)c(C(C)(C)C)c2)=NO1 (stereo unspecified)	x	x	x	99	i	0.92	x
COc1ccc(-c2cc(C(=O)O)sc2C)cc1	0	0	93	100	i	0.97	x
Cc1cc(Nc2cccc(F)c2)n2nc(C)nc2n1	-8	x	x	98	i	1.1	0.1
COc1c(C(=O)NNC(=O)c2ccccc2)csc1Br	x	x	x	102	i	1.1	x
COc1ccc(C2NC(=S)NC(O)(C(F)(F)F)C2C(=O)c2cccs2)cc1 (stereo unspecified)	3	9	91	110	i	0.9	-0.6
Cc1ccccc1N(CC(=O)NC(C)(C)C)C(=O)CS(=O)CC(=O)Nc1ccc2c(c1)OCO2 (stereo unspecified)	-3	-8	83	105	i	0.98	x
O=C(CCCc1ccccc1)NCc1ccc(F)cc1	-12	11	185	103	i	0.95	0.2
CN(c1ccccc1C(=O)Nc1cccnc1)S(C)(=O)=O	3	37	142	110	i	0.87	0.3
Cn1c(=O)n(C)c2cc(/C=N/NC(N)=S)ccc21	-7	x	x	91	i	0.85	x

Structures listed so far containing a cyano group, in the order listed:
SMILES	PKD1 kinase inh	INS promoter inh	INS promoter inh cell count	RGS16-Gao HTS	HSV replic up	HSV replic up primary fold	GALR2 ag
Cc1cc(C(=O)N2CCN(c3ncccc3C#N)CC2)no1	x	x	x	101	i	1	x
Cc1ccc(-c2cc(-c3ccc4c(c3)OCO4)c(C#N)c(N)n2)o1	1	16	118	96	i	1	5.8

The results go on:
SMILES	PKD1 kinase inh	INS promoter inh	INS promoter inh cell count	RGS16-Gao HTS	HSV replic up	HSV replic up primary fold	GALR2 ag
COC(=O)c1cc2occc2n1Cc1cccc(C)c1	-7	4	116	96	i	1.1	x
CC(C)NC(=S)N1CCN(S(=O)(=O)c2cccc(C(F)(F)F)c2)CC1	-12	38	80	95	i	1.1	-1.8
C=CCn1c(SCC(=O)c2c(N)n(C)c(=O)n(C)c2=O)nc2sc(C)c(C)c2c1=O	16	x	x	100	i	0.71	-3.3
O=C1N=C(N2CCN(c3ccccc3)CC2)S/C1=C\c1cn[nH]c1-c1ccccc1	3	42	144	99	i	0.79	-0.3
COc1ccc(CN2CC(=O)N(c3ccc(C)cc3)C2=S)cc1OC	0	36	179	96	i	0.98	0.4
CCOC(=O)CC1COc2ccccc2N1C(=O)c1ccc(F)cc1 (stereo unspecified)	1	-33	104	97	i	0.95	x
CCOC(=O)CNc1c(-c2ccc(Cl)cc2)nc2cnccn12	16	-26	79	105	x	x	-1.1
O=C(CCCN1C(=O)c2ccccc2C1=O)Nc1ccccc1C(=O)N1CCOCC1	0	x	x	117	i	1.1	-0.2
O=C(CSc1nc2ccccc2c(=O)n1NC(=O)Cc1ccccc1)NCc1ccco1	3	x	x	89	i	0.83	-2.3
C=CCSc1nc(C)c2cc(C)cc(C)c2n1	0	14	180	105	i	0.94	-1.8
CCc1ccc(C(=O)OCC(=O)NCC(F)(F)F)cc1	3	x	x	101	i	0.9	x
OC1(c2ccc(F)cc2)CCN(Cc2nnnn2Cc2cccs2)CC1	-11	x	x	10	i	0.95	-2.8
CC(=O)NCCn1c(SCC(=O)NCCC(C)C)nc2ccccc2c1=O	-7	31	100	99	i	0.88	-2.3
CCCCN(Cc1cc2cc(OC)ccc2[nH]c1=O)C(=O)c1ccco1	-5	48	97	101	i	0.78	1.1
CC1CC(Nc2ccccc2)c2ccccc2N1C(=O)c1cccnc1 (stereo unspecified)	-9	24	129	106	i	0.9	-0.6
Cc1ccc(C)c(CSc2nnc(-c3ccccn3)n2N)c1	-7	x	x	112	i	0.95	-2.7
COc1ccc(Sc2nc(-c3ccccn3)ncc2OC)cc1	-4	x	x	104	i	0.74	x
NC(N)=Nc1cc2ccccc2c2ccccc12	x	x	x	105	i	0.73	x
Cc1cccc(C)c1N1CCN(S(=O)(=O)N2CCOCC2)CC1	-4	-78	74	101	i	0.98	-3.0
N#C/C(=N\Nc1ccc(Br)cc1)C(=N)N1CCOCC1	4	44	117	104	i	1	x
Cn1c(SCC(=O)Nc2cccc(S(=O)(=O)NC3=NCCCCC3)c2)nnc1-c1ccccc1	-5	-12	120	110	i	0.89	x
CCOC1CCCCC1NS(=O)(=O)c1ccc(Cl)cc1 (stereo unspecified)	16	-33	111	94	i	0.71	-1.4
O=C(O)c1ccccc1N(Cc1ccccc1)C(=O)CO/N=C/c1ccccc1	-5	11	99	103	i	0.93	-0.7
O=C(O)c1ccc(CSc2nnc(SCc3ccccc3)s2)cc1	-10	-33	125	105	i	1.1	1.0
O=C(CNC(=O)c1ccc(Br)cc1)NCC(=O)OCc1ccc(Cl)cc1	6	x	x	107	i	0.94	x
COc1cccc(-n2c(SCC(=O)NCCC3=CCCCC3)nc3n[nH]c(C)c3c2=N)c1	0	x	x	98	i	0.8	0.3
